Assay outcomes as filed in PubChem.
VDR inhibitor: Inhibitors of the vitamin D receptor (VDR): qHTS; AID 504847, 2011; Potency, µM, for the others: max response, negative = inhibition, actives largely listed as inhibitors; 400,000 tested, 0.93% active; VDR-SRC2-3 peptide fluorescence polarization, 2 h; active = well fitted inhibition curve with a large enough effect; inconclusive = small, poorly fitted or top-dose-only effect, or another doubt; inactive = no such curve, though single readings can be large or run the other way; also: series mostly up to about 120 µM
Target sequence (P11473 whole entry, looked up): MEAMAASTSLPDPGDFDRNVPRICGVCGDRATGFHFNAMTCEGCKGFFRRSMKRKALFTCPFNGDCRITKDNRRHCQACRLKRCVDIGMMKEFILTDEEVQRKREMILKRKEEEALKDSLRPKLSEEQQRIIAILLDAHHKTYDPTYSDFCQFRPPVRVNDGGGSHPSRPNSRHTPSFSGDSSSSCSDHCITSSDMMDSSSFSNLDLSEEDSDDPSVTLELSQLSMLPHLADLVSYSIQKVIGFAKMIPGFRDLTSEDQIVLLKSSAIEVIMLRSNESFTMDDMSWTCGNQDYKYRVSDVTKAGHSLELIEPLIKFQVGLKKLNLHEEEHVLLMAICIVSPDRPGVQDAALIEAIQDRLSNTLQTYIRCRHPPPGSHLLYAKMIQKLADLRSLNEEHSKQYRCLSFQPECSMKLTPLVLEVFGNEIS
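Compounds are added to VDR with labelled SRC2-3 coactivator peptide and held 2 h at room temperature. Inhibition of the VDR–peptide interaction is then read as a change in fluorescence polarization.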
The depositor's hits bear a star; ? = inconclusive; & = joins results of further samples; [ ] = another dose, or the depositor's remark. % is scaled to controls: 0 for no effect and ±100 for the full control effect; potency is read from the fitted curve at half-maximal effect. This is a subset, so the mix of outcomes need not match the whole.

compound | VDR inhibitor
CC(/C=C/c1ccccc1)=N\NC(=O)CCc1ccccc1 | -5%
COc1ccc(Cn2c(SCc3ccc(C(=O)NC4CCCC4)cc3)nc3cccnc32)cc1 | 7%
S=c1[nH]nc(-c2ccco2)n1C1CCCCC1 | -9%
Cc1ccc(C(=O)COC(=O)c2ccc3c(c2)C(=O)N(c2cccc4ncccc24)C3=O)cc1C | -5%
O=C(Nc1ccccc1F)c1oc2ccccc2c1NC(=O)C1CC1 | -4%
CCOC(=O)CNc1ncc(C(F)(F)F)cc1Cl | 10%
CCCOc1ccc(CSC2=NCCN2)cc1[N+](=O)[O-] | 12%
COc1ccc(C(=O)Oc2ccc(C3NC(=O)c4c(sc5c4CCN(C)C5)N3)cc2OC)cc1 (configuration not stated) | -2%
O=C(Cn1cnc2sc3c(c2c1=O)CCCC3)NCC(=O)Nc1ccccc1F | 0%
OC1CN=C2Sc3ccccc3N2C1 (configuration not stated) | -13%
CCc1ccc(NC(=O)c2cccnc2)cc1 | -1%
COC(=O)c1cccc(NC(=O)c2nn(C)c(=O)c3ccccc23)c1 | -7%
Cc1cccc(OCC(=O)Nc2ccc3c(c2)nc(CCN2CCCCC2)n3C)c1 | 8%
COc1ccc(C(CNC(=O)c2cccc(S(=O)(=O)Nc3ccccc3Cl)c2)N2CCOCC2)cc1 (configuration not stated) | 9%
Cc1cccc(-c2ccc3ncnc(NCc4cccs4)c3c2)c1 | -20%

Later entries:
compound | VDR inhibitor
Cc1ccccc1-c1n[nH]c(=S)n1Cc1ccccc1 | 9%
CCCN1CCC(=O)N(C(CSc2ccc(C)cc2)Cc2ccccc2)CC1 (configuration not stated) | -25%
COc1cccc(OC)c1C(=O)N1CCN(Cc2cccnc2)CC1 | 34%[activator]
CCCCCCNC(=O)N[C@@H](C(=O)NCCC[C@H]1CN2C(=NC[C@@H]2Cc2ccccc2)N1CCc1cccc(OC)c1)C(C)C | ?
CCOc1ccccc1NC(=O)Nn1cnnc1 | -2%
CCN1CCN(CC(=O)Nc2cc(C(F)(F)F)ccc2OCCOC)CC1 | -15%
Cc1ccc(S(=O)(=O)N(C)C)cc1NC(=O)c1ccncc1 | 4%
O=C(O)c1cccc(CSc2nc(-c3ccccc3)cc(C(F)(F)F)n2)c1 | -26%
CC(=O)Nc1ccc(S(=O)(=O)NCc2ccc(C(=O)N3CCOCC3)cc2)cc1 | 3%
O=S(=O)(/N=C/N1CCOCC1)c1ccc(Cl)cc1 | -8%
CC(=O)Nc1ccc(S(=O)(=O)N(C)CC(=O)OCC(=O)N(CC(C)C)C2CCS(=O)(=O)C2)cc1 (configuration not stated) | 1%
COc1ccc(C(=O)N/C(=C\c2cccc3ccccc23)C(=O)N2CCN(C)CC2)cc1OC | -2%
Cc1sc2ncnc(N3CCCC(C)C3)c2c1C (configuration not stated) | -2%
CC(C(=O)O)n1nc(-c2ccccc2)c2ccccc21 (configuration not stated) | 3%
Cc1onc(-c2ccccc2Cl)c1C(=O)O/N=C(\N)c1ccc([N+](=O)[O-])o1 | -11%

In another format: 4 of the compounds above.
Cc1ccc(S(=O)(=O)N(C)C)cc1NC(=O)c1ccncc1
  VDR inhibitor: 4%
CC(C(=O)O)n1nc(-c2ccccc2)c2ccccc21 (configuration not stated)
  VDR inhibitor: 3%
Cc1ccccc1-c1n[nH]c(=S)n1Cc1ccccc1
  VDR inhibitor: 9%
Cc1onc(-c2ccccc2Cl)c1C(=O)O/N=C(\N)c1ccc([N+](=O)[O-])o1
  VDR inhibitor: -11%

(list continues)
compound | VDR inhibitor
O=C(/C=C/c1ccccc1)N1CCN(Cc2cc(=O)n3nc(-c4ccccc4F)sc3n2)CC1 | 3%
CC[C@@H]1C(c2ccccc2)=NN(c2ccc(Br)cc2)[C@H]1C(=O)N1CCOC1=O | 2%&-1%
Cc1[nH]c(=O)n(C(C)C)c(=O)c1Br | 37%[activator]
c1ccc(CSc2ncccn2)cc1 | -4%
CC(C)c1cccc(C(C)C)c1NC1=NS(=O)(=O)c2ccccc21 | -2%
Nc1cc(Cl)ccc1Oc1ccccc1 | 13%
CCc1nc2c(c(=O)c3ccccc3n2C)c(=O)n1-c1ccc(F)cc1 | -6%
COc1cccc(-c2noc(Cn3nc(C(=O)O)c4ccccc4c3=O)n2)c1 | 0%
COc1ccc(Br)cc1CN1CCN(C(=O)c2ccc(OC)c(OC)c2)CC1 | 5%
COc1ccc(NC(=O)Cc2ccc(Cl)cc2)cc1S(=O)(=O)N1CCCCC1 | 4%
CCOc1ccc(C(=O)NCC(=O)NC(C)CCc2ccccc2)cc1OCC (configuration not stated) | 6%
CC1CCN(C(=O)c2ccccc2NC(=O)c2cccc(S(=O)(=O)N(C)C)c2)CC1 | 8%
O=C(Nc1ccc2c(c1)OCO2)c1cc(C2CC2)on1 | -7%
O=S(=O)(c1ccc(C(F)(F)F)cc1)N1CCN(CCc2ccccc2)CC1 | -23%
COc1ccc(COC(=O)c2ccc(S(=O)(=O)N3CCCCC3)cc2)cc1OC | -9%

Next part.
compound | VDR inhibitor
Cc1ccc(-c2cc(C(F)F)nc(NCc3cccnc3)n2)cc1 | -14%
Cc1nnc(SCC(=O)N(CC(C)C)C2CCS(=O)(=O)C2)n1N (configuration not stated) | 3%
COc1ccccc1NC(=O)CN1C(=O)CCS(=O)(=O)c2ccccc21 | 14%
COc1cccc(N2CCN(C(=S)NCc3ccco3)CC2)c1 | 15%
Cc1ccc(CNC(=O)CN(C)S(=O)(=O)c2cccs2)cc1 | 8%
CCN(CC)S(=O)(=O)c1cc(NC(=O)COC(=O)c2sc3ccccc3c2Cl)ccc1C | -1%
Cc1cccc(NC(=S)NC(=O)/C=C/c2ccco2)c1 | ?
O=C(N/N=C/c1ccccc1)C(=O)N/N=C/c1ccccc1 | 1%
CCOC(=O)c1nn(-c2ccc(F)cc2)c(=O)cc1OCC(=O)N1CCN(c2ccccc2)CC1 | -5%
Cc1cccc(NC(=O)c2cc3c(=O)n(Cc4cccnc4)ccc3nc2C)c1 | 15%
Cc1cccc(OCC(=O)Nc2ccc(S(=O)(=O)Nc3cc(C)nc(C)n3)cc2)c1 | 9%
COc1ccc(Cl)cc1NC(=O)c1c(NCc2cccnc2)sc2c1CCCC2 | ?
COc1cccc(-c2cc(C(=O)Nc3cccnc3)c3ccccc3n2)c1 | 13%
CC1=CC(c2ccccc2)n2nc(N3C(=O)C4CC=CCC4C3=O)nc2N1 (configuration not stated) | 10%
Cc1cccc(NC(=O)c2cccc(OC(=S)N3CCOCC3)c2)c1 | 9%

The results go on:
compound | VDR inhibitor
Cc1ccc(-n2nnnc2SCC(=O)c2c(N)n(C3CC3)c(=O)[nH]c2=O)c(C)c1 | 6%
COc1cc(NC(=O)c2ccc3c(SCC(=O)O)c4c(nc3c2)CCCC4)cc(OC)c1OC | -9%
CN(C)c1ccc(CNC(=O)C2CCN(S(=O)(=O)c3ccc4[nH]c(=O)ccc4c3)CC2)cc1 | -3%
O=C(C1CCCO1)N1CCC(O)(c2ccccc2)CC1 (configuration not stated) | -1%
N#Cc1ccc(-n2c(-c3ccccc3)nnc2-c2ccccc2)cc1C#N | -11%
Cc1ccc(C(=O)OCc2c(C)noc2C)cc1NC(=O)c1ccco1 | 5%
Cc1cc(NC(=O)COC(=O)c2ccccc2Cl)no1 | -1%
O=S1(=O)N=C(Nc2ccc(O)c(CN3CCCCC3)c2)c2ccccc21 | -5%
O=C(Nc1ccccc1O)c1nc(Cl)ccc1Cl | -4%
COc1ccc(-c2noc(CSc3nc(N)c(-c4ccccc4)c(=O)[nH]3)n2)cc1OC | 9%
O=C(CSc1nc(-c2ccco2)cc(C(F)(F)F)n1)NCCCn1ccnc1 | -17%
O=C1[C@H]2[C@H](C=CC[C@H]2C(=O)N2CCN(c3ccccc3)CC2)CCN1Cc1ccc(Cl)c(Cl)c1 | -14%
COc1ccc(N2CCN(C(=O)c3ccc(N4CCCCS4(=O)=O)cc3)CC2)cc1 | 8%
CC1(C)NC(=O)N(CC(O)CN2CCCCC2)C1=O (configuration not stated) | 5%
CN(C)C(=O)c1cc(-c2ccccc2)no1 | 10%

Other entries
smiles	VDR inhibitor
CC(C)Oc1ccc(NC(N)=O)cc1	8%
CC(=O)c1ccc(S(=O)(=O)Nc2ccc(C(=O)NCC(c3ccccc3)N(C)C)cc2)cc1 (configuration not stated)	7%
O=C(Nc1nnc(-c2ccncc2)o1)c1ccccc1	?
Cc1sc2ncn3c(C)nnc3c2c1C	14%
COc1cccc(S(=O)(=O)N2CCN(C(=O)c3ccco3)CC2)c1	4%
Cc1cccc(-n2cnc(C(=O)O)c2)n1	9%
COc1cccc(NC(=O)C(NC2CCCC2)c2ccccc2)c1 (configuration not stated)	-6%
O=c1cc(CSc2nnc(COc3cccc4ccccc34)o2)c2ccccc2[nH]1	5%
CC12CCC(=O)N1C(C(=O)NCCN1C(=O)S/C(=C\c3ccccc3F)C1=O)CS2 (configuration not stated)	12%
CCC(=O)c1ccc(OCC(O)Cn2nc(C)c(C(C)=O)c2C)cc1 (configuration not stated)	-4%
Nn1c(SC/C=C/c2ccccc2)nnc1-c1cccnc1	-3%
Cc1noc(C(=O)Nc2ccc3c(c2)OCO3)c1Cl	-7%
COc1ccc(N2C(=NC(=O)CC3CCCCC3)SC3CS(=O)(=O)CC32)cc1 (configuration not stated)	-5%
CN(C)C(=S)Nc1ccc2c(c1)OCCO2	7%
Cc1ccc(CONC(=O)c2ccccc2)cc1	12%
COc1cc(Cl)c(C)cc1NC(=O)NC1COc2ccccc2C1 (configuration not stated)	1%
Cc1cc(Br)ccc1NC(=O)c1ccc(NS(=O)(=O)c2c(C)noc2C)cc1	-34%
CCCCOc1ccc(C(=O)NCC(=O)NC2CC2)cc1	-4%
O=C(Cc1ccc([N+](=O)[O-])cc1)OCc1c(F)cccc1Cl	-3%
CCCCc1nc2cc(C(=O)N(C)C3CCOCC3)ccc2o1	-20%
COCCCNC(=O)C[C@H]1C[C@H](C(=O)N2CCCCC2)[C@@]2(C)c3[nH]c4cc(-c5ccco5)ccc4c3CCN2C1=O	?
O=C(Nc1nnc(C2CC2)s1)c1ccco1	17%
CNc1nc(OC)nc(N2CCOCC2)n1	5%
CC(=O)c1ccc(NC(=O)c2ccc(NC(=O)CCS(=O)(=O)c3cccs3)cc2)cc1	16%&3%
CCN(Cc1ccccc1)C(=O)CCc1c(C)nc2c(c(C)nn2-c2ccc(C)c(C)c2)c1C	-11%

Another view of 2 compounds above.
VDR inhibitor,SMILES
12%,CC12CCC(=O)N1C(C(=O)NCCN1C(=O)S/C(=C\c3ccccc3F)C1=O)CS2 (configuration not stated)
-4%,CCC(=O)c1ccc(OCC(O)Cn2nc(C)c(C(C)=O)c2C)cc1 (configuration not stated)

Additional entries
smiles	VDR inhibitor
COc1ccc(NC(=O)N2CC[C@@]3(CCCN(C(=O)c4cccn4C)C3)C2)cc1	-1%
O=C(CSc1nc(-c2ccccc2)cc(=O)[nH]1)N1CCOCC1	-11%
Cc1cc(-c2ccccc2)nc(N(C)NC(=O)c2cccc(C(F)(F)F)c2)c1S(C)(=O)=O	-10%
O=C(CS(=O)(=O)c1ccc(C(F)(F)F)cn1)NNC(=O)c1ccccc1	4%
COc1ccc(NC(=O)Cn2c(SCc3ccc(F)cc3)nc3cccnc32)c(OC)c1	0%
COc1cc(C(=O)Nc2cccc(OCc3cc(=O)n4c(C)csc4n3)c2)cc(OC)c1OC	-3%
Cc1ccc(S(=O)(=O)CCC(=O)OCC(=O)Nc2cc(C)on2)cc1	-3%
CC(NC(=O)c1cc2c(=O)n3ccccc3nc2n(CC2CCCO2)c1=N)c1ccccc1 (configuration not stated)	-16%
O=C(Nc1nc(-c2ccccc2)cs1)c1ccc(S(=O)(=O)N2CCc3ccccc32)cc1	-17%
CCn1nccc1C(=O)Nc1cc(Cl)ccc1Cl	2%
Cc1[nH]c2ccccc2c1N=Nc1ccc(F)cc1	11%
O=C(NCc1noc2ccccc12)N1CCN(c2ccccc2)CC1	-2%
CC(=O)c1cc(-c2ccccc2)n(CC(=O)N2CCC(N3CCCCC3)CC2)c1C	19%
CCN(CC)CCCNC(=O)c1ccccc1NC(=O)C1=CSCCO1	-13%
CCOc1ccc(NC(=O)[C@H](Cc2ccccc2)N2Cc3ccccc3C2=O)cc1	-10%
Cc1ccc(NC(=O)CCC(=O)N/N=C/c2cccs2)cc1	12%
Cc1cccc(N=Nc2cnc(N)s2)c1	?
N#Cc1ccsc1NC(=O)CN1CCN(c2ccccc2)CC1	-13%
Cc1ccc(Cl)cc1Nc1sc(C(=O)c2ccccc2)c(N)c1S(=O)(=O)c1ccccc1	10%
COc1ccccc1NC(=S)N(CCCN1CCOCC1)Cc1cccs1	-4%
CCSc1nnc(NC(=O)c2cc(=O)c3cc(C)c(C)cc3o2)s1	3%
Cc1cccc(-n2c(N)cc(=O)[nH]c2=S)c1C	-9%
Cc1ccccc1CCNC(=O)CCn1nc(C)c2c(C)n(-c3ccccc3)nc2c1=O	7%
COc1ccc(OC)c2sc(NC(=O)c3ccc(Cl)s3)nc12	-23%
O=C1c2ccccc2N2C(=O)c3ccccc3C2N1Cc1ccco1 (configuration not stated)	-12%

More compounds
smiles	VDR inhibitor
CC(C)N(C(=O)CSc1nnc(-c2cc3ccccc3cc2O)n1Cc1ccco1)C(C)C	-14%
NC(=O)c1ccccc1NC(=O)Cn1nc(Cc2cccnc2)c2ccccc2c1=O	-2%
N#Cc1cnn2c(-c3cccc([N+](=O)[O-])c3)ccnc12	-27%
CCNc1nc(SCC(=O)OC)nc(N(C)C)n1	-10%
CCN(CC)c1ccc(NC(=O)c2cc(C)nc3c2c(C)nn3-c2cccc(F)c2)c(C)c1	-3%
O=[N+]([O-])c1ccc(NC2CCCCC2)nc1	-11%

Three consecutive records out of the list so far, quoted:
smiles	VDR inhibitor
CC(C)N(C(=O)CSc1nnc(-c2cc3ccccc3cc2O)n1Cc1ccco1)C(C)C	-14%
NC(=O)c1ccccc1NC(=O)Cn1nc(Cc2cccnc2)c2ccccc2c1=O	-2%
N#Cc1cnn2c(-c3cccc([N+](=O)[O-])c3)ccnc12	-27%
